Compound activity: PubChem BioAssay, several laboratories
Mtb hypoxia rep: reduces hypoxia-regulated biosensor signal in M. tuberculosis | M. tuberculosis hypoxia-regulated fluorescent reporter, fluorescence | fluorescence inhibition, % (test concentration not listed) | hit rate 0.1% among 300,000;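 active = 35 to 45% if threefold the growth effect, above 45% if 1.5-fold the growth effect; inactive = the rest, general growth blockers included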;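 note: wells of about 50 µL received 100 nL stock; 0% = vehicle wells and 100% = reference inhibitor wells; whole bacteria with a GFP reporter of the hypoxia response; strong numbers were not always called active; many hits fall short of the cut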
PrP 5UTR inh: suppresses PrP 5' UTR mRNA reporter expression; cell-based PrP 5' UTR mRNA reporter, plate reader; AID 488862; inhibition, % (no concentration beside the values); hit rate 0.35% among 340,000;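 active = every replicate at 50% or more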;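 note: 0 = median of the neutral control wells; tested in H4 reporter cells; numbers are from one replicate; inactives centre near -14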
BJeLR viability: BJeLR cell viability loss. BJeLR (HRASV12) viability, CellTiter-Glo ATP luminescence, 48 h; reference of the scale not given here. inhibition, % (concentration not given with the values). hit rate 0.17% among 300,000. AID 1554;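 active = replicate mean above 50%; inconclusive = above 50% but judged a plate artefact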;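 note: 50 nL library stock added to about 25 µL; numbers are from one replicate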
Autofluor counter: counter-screen for toxin protease inhibitors: compound fluorescence. hit rate 3.1% among 360,000. compound autofluorescence counterscreen, microsphere flow cytometry; hits give high values. AID 624483. fluorescence intensity (concentration not given with the values);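 active = at least 3 SD above the mean of all compounds, about 16000 in these data; inconclusive = too few beads counted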;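 note: 100 nL of 1 mM stock went into each well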
ugtP null kill: kills S. aureus RN4220 lacking UgtP | S. aureus RN4220 ugtP deletion, OD600 growth, 16 h; some inactives read as strong as hits | growth inhibition, % (no concentration beside the values) | hit rate 0.54% among 330,000 | AID 1259309;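 active = z-score under -3 and OD600 up to 0.15 on both plates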;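 note: plate controls were untreated wells for no effect and antibiotic for full effect; wells of about 80 µL received 100 nL stock; the first replicate is given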
RN4220 kill: S. aureus RN4220 growth inhibition; OD600, 16 h; inhibition, % (concentration not given with the values); hit rate 0.33% among 330,000; AID 1259311;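 active = z-score of -3 or lower and OD600 up to 0.18 on both plates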;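 note: plate controls were untreated cells for no effect and reference antibiotic for full effect; stock transfer was 100 nL into about 80 µL; one replicate is shown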
Mtb hypoxia rep growth: further read-out of Mtb hypoxia rep, marked with its call; growth inhibition, %; measured here: M. tuberculosis growth (absorbance);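 0% = vehicle and 100% = reference antibiotic; read after six days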
* = called active by the depositor; ? = inconclusive; . = no result given; & = joins results of further samples; ! = repeats disagree.

SMILES	Mtb hypoxia rep	Mtb hypoxia rep growth	PrP 5UTR inh	BJeLR viability	Autofluor counter	ugtP null kill	RN4220 kill
COc1ccc(-n2c(-c3ccc(Br)cc3)nc(=S)c3c2CCCC3)cc1	-9	2	-5	13	3075	-1	-1.5
CCc1cc(C(=O)NNC(=S)Nc2cc(C)ccc2C)cs1	10	19	-22	0	23483*	2	3.1
Cc1nc2ccccn2c1-c1csc(Nc2ccc(C(=O)O)cc2)n1	9	8	3	35	3454	1	6.5
O=C(Nc1ccc2c(c1)OCCO2)C1CC(O)CN1C(=O)Nc1ccccc1 (stereo unspecified)	4	-6	0	-3	3099	13	4.0
Cc1cc(C(F)F)n2ncc(C(=O)N3CCC(C(N)=O)CC3)c2n1	.	.	2	5	3497	5	2.3
CCOc1ccc(Oc2c(/C=N/NC(N)=O)c(C)nn2-c2ccccc2)cc1	.	.	-16	1	2374	.	.
O=C(CN1C(=O)c2cccc3cccc1c23)NC1CCCCC1	-13	-1	-21	8	5363	-4	-1.1
CC(C(=O)N1CCc2ccccc21)N(C)CC(=O)Nc1ccccc1Cl (stereo unspecified)	-3	7	8	.	3237	0	-1.2
Cc1cc(C(=O)COC(=O)c2ccc(O)cc2)c(C)n1CC1COc2ccccc2O1 (stereo unspecified)	8	0	-7	-18	2208	-17	22
CCC1CCCCN1S(=O)(=O)c1ccc(NC(=O)c2ccncc2)cc1 (stereo unspecified)	1	1	-17	17	5009	-1	2.7
CC#CCN1c2ccccc2[C@]23CC(C(=O)OC)N(C(=O)NC4CCCCC4)C2=NC(C(=O)OC)=C(C(=O)OC)C13 (stereo partly specified)	2	6	.	.	.	10	5.3
COc1ccc(NC(=O)CSc2nnc(-c3cccnc3)s2)cc1	.	.	-7	-3	3841	.	.
C=CCNC(=O)CSCc1ccc(Br)cc1	-5	5	-57	1	3924	-11	-0.2
COc1cccc(C(=O)NCC(=O)n2nc(C)cc2C)c1	-7	0	-1	-6	2933	-4	0.3
CC(C)NC(=O)CN(Cc1ccc2c(c1)OCO2)C(=O)CCC(=O)Nc1ccccn1	12	3	-9	-9	5342	-2	1.3
CCOC(=O)C1=C(COC(=O)C2CC(=O)N(c3ccccc3F)C2)NC(=O)NC1C (stereo unspecified)	8	4	-1	.	7525	-2	1.3
Cc1ccc(C)c(OCc2cc(C(=O)N3CCN(c4cnccn4)CC3)no2)c1	4	-4	-19	2	6248	6	7.0
CC1(C)CC2CCC(O)C2C(CCO)N1 (stereo unspecified)	5	6	-8	.	4604	2	1.2
CC(OC(=O)c1ccncc1)C(=O)Nc1cc(S(=O)(=O)N2CCCCC2)ccc1Cl (stereo unspecified)	-2	2	-12	13	6522	3	-4.1
Cc1ccccc1C(=O)NCC(=O)N1CCN(C/C=C/c2ccccc2)CC1	-5	-3	1	.	8985	2	2.0
COCCn1ccc2c(OCC(=O)Nc3ccccc3OC)cccc2c1=O	9	7	-4	1	?	3	2.5
COc1ccc(C(=O)NNC(=O)CCn2nnc(-c3ccc(C)cc3)n2)cc1OC	-3	3	-11	-18	4388	-11	-2.1
CC1=CC(C)(C)N(S(=O)(=O)c2ccc(F)cc2)c2ccc(C)cc21	10	15	-31	9	10382	1	6.6
CN1c2ccccc2C(=O)/C(=C\Nc2ncccn2)S1(=O)=O	1	5	-19	-7	3699	-9	-5.1
CCOc1ccc(-c2noc(CCC(=O)O)n2)cc1	.	.	22	-6	4260	-1	-3.1
CCN(CC(=O)Nc1c(F)cccc1F)C(=O)Cn1[nH]c(=O)c2ccccc2c1=O	1	2	5	.	.	-1	2.3
Cc1cccc(CSc2nnc(NC(=O)CSc3nnc(C)s3)s2)c1	5	-3	-30	11	2309	-11	-6.3
Cc1ccc(CNC(=O)CCCn2nc(C)c3c(C)n(-c4ccccc4)nc3c2=O)cc1	10	2	-7	-4	5197	3	1.1
CCCCNC(=O)N(O)C1N(N=Cc2ccco2)C(=S)SC1(C)C (stereo unspecified)	13	6	.	.	.	6	2.5
Cc1ccc(Cn2c(C)cc3c(c2=O)C(c2cccs2)C(C#N)=C(N)O3)cc1 (stereo unspecified)	3	-1	.	11	9584	0	0.2
Cc1cccc(OC(=O)NCCOC(=O)N(O)c2ccc(Cl)cc2)c1	-1	-10	4	-4	1609	4	5.1
CCOc1ccc(C(=O)CC(C(=O)O)N2CCCCC2)cc1 (stereo unspecified)	8	9	-13	.	3809	3	-0.2
CCCCN1CC[C@H]2C=CC[C@@H](C(=O)Nc3ccc(OC)cc3)[C@H]2C1=O	.	.	8	1	3934	.	.
CCOC(=O)C(C(=O)Nc1ccccc1C)C1CCCCC1 (stereo unspecified)	7	-4	-37	2	10942	7	3.9
CCOC(=O)C1CCCN(CCCc2ccccc2)C1 (stereo unspecified)	-3&-2	2&3	-9&-4	-1&9	23848*!	4&6	7.2&2.6
Cc1cccc(OCC(=O)N/N=C/c2ccc3c(c2)OCO3)c1	.	.	-4	-6	4177	.	.
Cc1nn(Cc2ccccc2)c(Cl)c1/C=C1\NC(=S)NC1=O	17	6	-23	0	4307	2	0.2
CC(C)NC(=O)C(=O)NCc1ccccn1	6	-3	-14	-2	4951	4	9.1
Cc1ccc(NS(=O)(=O)c2ccc3c(c2)CCC(=O)N3)cc1C	15	6	-14	4	4007&4241	7	11
CCOc1ccc(S(=O)(=O)Nc2ccccc2SC)c2cccnc12	11	4	-4	2	4047	-3	1.1
CCOc1ccc(N(C(=O)Cn2nnc3ccccc32)C(C(=O)NC(C)(C)CC)c2cccn2C)cc1 (stereo unspecified)	2	6	-5	-8	2597	-6	2.7
CCCOc1cccc(-c2cc(C(=O)NN=Cc3cccnc3)c3ccccc3n2)c1	2	-8	.	.	.	12	1.2
O=[N+]([O-])c1ccc(N/N=C\c2ccccc2OCc2ccccc2)cc1	.	.	15	-8	2798	.	.
CSc1cccc(NC(=O)CCCNC(=O)c2ccc(Cl)cc2)c1	.	.	-9	4	5116	.	.
COc1cc(OC)cc(OCC(O)Cn2cnc3cc(C)c(C)cc32)c1 (stereo unspecified)	2	5	-9	-8	5416	9	8.7

Brought forward from above: 4 entries, followed by the next part.
SMILES	Mtb hypoxia rep	Mtb hypoxia rep growth	PrP 5UTR inh	BJeLR viability	Autofluor counter	ugtP null kill	RN4220 kill
CCCOc1cccc(-c2cc(C(=O)NN=Cc3cccnc3)c3ccccc3n2)c1	2	-8	.	.	.	12	1.2
O=[N+]([O-])c1ccc(N/N=C\c2ccccc2OCc2ccccc2)cc1	.	.	15	-8	2798	.	.
CSc1cccc(NC(=O)CCCNC(=O)c2ccc(Cl)cc2)c1	.	.	-9	4	5116	.	.
COc1cc(OC)cc(OCC(O)Cn2cnc3cc(C)c(C)cc32)c1 (stereo unspecified)	2	5	-9	-8	5416	9	8.7
C(=Cc1cnnc2ccccc12)c1ccccc1	14	16	-71	.	2940	-13	9.9
Cc1ccc(Oc2ccc(C(=O)NC3CCSC3=O)cn2)cc1 (stereo unspecified)	.	.	-18	12	2518	-3	1.7
CCOC(=O)NC(=O)c1cn(CCN(C)C)c(=O)[nH]c1=O	1	-5	-12	5	2110	0	3.2
Cc1nonc1NC(=O)c1oc2ccc(F)cc2c1C	10	1	-47	-2	5647	-3	3.3
Cc1cccc(N2CCN(S(=O)(=O)c3ccc4c(c3)CC(C)N4C(=O)C3CC3)CC2)c1C (stereo unspecified)	-9	-10	-16	-12	5758	2	0.1
Cc1cc(NCc2cccnc2)no1	5	-4	-5	-4	4514	3	1.9
Cc1cccc2c(-c3ccccc3)cc(=O)[nH]c12	.	.	-31	-10	2718	5	3.3
Clc1ccc(-c2ccnc3nc(N4CCOCC4)nn23)c(Cl)c1	-17	-17	0	.	5830	-9	3.0
CCCCCOC(=O)CC(C(=O)OCCCCC)N1CCCCC1 (stereo unspecified)	10	3	-7	0	2423	35	2.5
CC1=CC(c2ccccc2)=Nc2ccc(C)cc2N1	-6	-5	-87	4	2827	4	4.6
Clc1ccccc1-c1nnc(CNC2CC2)o1	.	.	-10	0	2257	-13	-3.1
O=c1oc(-c2cccs2)nc2c1cnn2-c1ccccc1	9	4	15	7	16820*	7	0.8
Cc1cccc(NC(=O)CSc2n[nH]c(-c3cccnc3)n2)c1	.	.	-6	0	5721	.	.
O=C(CCNC(=O)c1ccc(Br)cc1)Nc1ccc(S(=O)(=O)N2CCCCC2)cc1	0	-10	-106	.	6189	2	3.6
COc1cc(/C=N/Nc2nc(C)cc(=O)[nH]2)ccc1O	.	.	-2	-1	3881	.	.
COc1ccc(C)cc1N(CC(=O)Nc1ccc2c(c1)OCCO2)S(C)(=O)=O	-4	-3	-17	1	3165	-3	-1.0
O=C(CSc1nnc(CNC(=O)c2cccs2)o1)Nc1ccc2c(c1)OCO2	.	.	0	1	3599	4	-0.8
CCCCN(CC)CCCNC(=S)Nc1ccc2nc(N3CCN(C)CC3)cc(C)c2c1	-1	9	-27	-4	4362	5	2.6
COC(=O)c1ccccc1NS(=O)(=O)c1cn(C)c(=O)n(C)c1=O	-7	-4	-12	2	5327	-2	1.7
Cc1ccc(C=NNC(=O)CN2C(=O)CSc3ccccc32)o1	5	-2	.	.	.	2	3.5
CCCCN(C(=O)C1CCN(C(=O)c2ccccc2C)CC1)c1c(N)n(CCC)c(=O)[nH]c1=O	-1	-3	6	.	4813	3	-0.2
Cn1c(=O)c(NC2CCCCC2)c2c3c(cccc31)C(=O)c1ccccc1-2	-41	11	-26	.	8853	37	0.6
CCOC(=O)C1Nc2ccc(OC(F)(F)F)cc2C2C=CCC12 (stereo unspecified)	-1	1	-22	8	2764	2	7.1
CCOc1ccc(-n2nnnc2SCC(=O)Nc2ccc(NC(C)=O)cc2)cc1	12	16	-20	16	3952	3	1.6
O=C(O)c1ccc(N/N=C2/CCSc3ccc(F)cc32)cc1	.	.	-26	2	5564	.	.
CCOc1ccc(C(=S)N2CCOCC2)cc1	.	.	-5	-3	2123	5	7.0
O=c1cc(O)n(-c2ccc(F)cc2)c(=S)[nH]1	.	.	-31	-13	2379	-4	-5.0
O=C(CSc1nnc2ccccn12)NNC(=O)c1ccccc1	1	7	13	1	4285	10	1.1
CC1CCc2nn(CC(=O)NC3CCCC3)cc2C1 (stereo unspecified)	.	.	-18	-1	6232	9	0.5
Cc1nc(-c2ccc(C(=O)NCCO)cc2)cs1	3	1	-23	-8	4583	-3	0.5
COC(=O)C1CCN(C(=O)COC(=O)c2cc(-c3ccccc3)nc3ccc(OC)cc23)CC1	11	5	-14	.	2867	-8	-6.1
CCCn1c(=O)c2ccccc2n2c(SCC(N)=O)nnc12	0	0	-41	-5	4481	1	1.4
COc1ccc(OC)c(/C=N/n2c(-c3n[nH]c4c3CCC4)n[nH]c2=S)c1	.	.	-12	-8	5424	.	.
Cc1nnc(NC(=O)c2c(-c3ccccc3)noc2C)s1	9	15	-13	2	3157	1	1.2
Cn1c(SCC(=O)Nc2ccc(NC(=O)c3cccs3)cc2)nnc1-c1ccncc1	5	4	-12	-14	3168	-4	2.4
CC1(C)CC[C@]2(C(=O)O)CC[C@]3(C)C(=CCC4[C@@]5(C)CCC(O)C(C)(C)C5CC[C@]43C)C2C1 (stereo partly specified)	-1&-6	12&13	.	.	.	91*!	81&14
O=S(=O)(NC1CCc2ccccc21)c1ccc(S(=O)(=O)N2CCCC2)cc1 (stereo unspecified)	-6	5	-2	4	12546	-9	-0.3
COc1ccc(CCC(=O)NCc2cn3ccc(C)cc3n2)cc1	-2	1	2	-8	7309	-5	0.4
CCCN(CCC)S(=O)(=O)c1ccc(NC(=O)COc2ccccc2)cc1	2	0	4	-9	16179*	-2	-1.5
O=CNc1ccc2c(c1)Cc1cc([N+](=O)[O-])ccc1-2	-2	4	3	.	4053	1	0.4
COc1ccc(OC)c(CNC(=O)c2nn(C)c3c2CS(=O)(=O)c2ccccc2-3)c1	12	0	1	13	5010	6	2.9
COCc1cc(C)nc(SCC(=O)Nc2cc3c(cc2C#N)OCO3)c1C#N	4	3	2	-6	3225	1	-2.4
Cc1ccc(C(=O)Nc2cccc(S(=O)(=O)N3CCOCC3)c2)cc1[N+](=O)[O-]	-7	-3	-21	-14	5702	-7	-6.4
